AID923 – qHTS Assay for Allosteric/Competitive Inhibitors of Caspase-1: Spectroscopic Profiling in AFC Spectral Region; compound fluorescence, AFC spectral region (405/520 nm); almost no hit is shown here; actives 1.1% (n = 75,000); AID 923, 2007; Potency, µM (highest dose often 57.5 µM), inactives show top-dose fluorescence increase, actives largely listed as activators; active = well fitted activation curve with a large enough effect; inconclusive = small, poorly fitted or top-dose-only effect;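 note: potency is the fitted concentration of half-maximal effect; 0% is about no effect; scaled to a free AFC standard on each plate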
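Compound autofluorescence profiled at 405 nm ex/520 nm em during kinetic caspase 1 run (50 nM enzyme, 5 uM Ac-WEHD-AFC, HEPES pH 7.5, 10 mM DTT). Titration up to 57 uM; baseline from regression intercept, normalized to AFC standard curve.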
TSHR ag – TSH receptor (human) agonism. P16473. HEK293-CNG-TSHR cells (CNG channel as cAMP sensor), membrane potential dye, cAMP. Potency, µM (series often up to 57.1 µM), inactives show top-dose activation, most hits filed as activators. actives 0.48% (n = 73,000). AID 926; active = well fitted activation curve of enough size with the parental cells flat; inconclusive = any curve in the parental cells; inactive = parental cells flat and receptor cells flat or falling; note: potency is the fitted concentration of half-maximal effect; % of control where 0% means no effect; weak receptor curves with flat parental cells got no call and are not listed
Target sequence (P16473 whole entry, looked up): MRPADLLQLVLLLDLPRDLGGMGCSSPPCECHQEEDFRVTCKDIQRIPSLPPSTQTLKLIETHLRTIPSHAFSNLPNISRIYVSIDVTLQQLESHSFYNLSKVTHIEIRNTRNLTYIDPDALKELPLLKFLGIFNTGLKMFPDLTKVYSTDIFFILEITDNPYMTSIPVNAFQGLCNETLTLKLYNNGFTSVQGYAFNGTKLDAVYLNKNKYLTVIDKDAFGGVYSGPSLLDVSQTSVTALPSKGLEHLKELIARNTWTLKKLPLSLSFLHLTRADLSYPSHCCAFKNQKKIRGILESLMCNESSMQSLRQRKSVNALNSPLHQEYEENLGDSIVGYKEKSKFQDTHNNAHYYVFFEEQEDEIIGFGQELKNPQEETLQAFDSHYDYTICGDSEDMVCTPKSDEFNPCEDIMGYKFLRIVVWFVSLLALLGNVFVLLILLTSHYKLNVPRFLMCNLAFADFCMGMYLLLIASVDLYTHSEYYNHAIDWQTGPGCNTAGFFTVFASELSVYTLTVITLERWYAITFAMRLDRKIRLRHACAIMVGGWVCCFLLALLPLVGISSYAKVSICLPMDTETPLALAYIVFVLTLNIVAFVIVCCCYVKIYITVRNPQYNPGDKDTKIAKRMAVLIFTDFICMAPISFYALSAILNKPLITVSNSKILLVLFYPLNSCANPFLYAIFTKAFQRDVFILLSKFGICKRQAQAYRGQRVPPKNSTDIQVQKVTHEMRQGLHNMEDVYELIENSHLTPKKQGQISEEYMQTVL
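HEK 293 cells stably expressing TSHR and a modified CNG channel, with CNG-only parental cells as counterscreen, were preloaded 60 min at room temperature with membrane potential dye containing 100 uM RO 20-1724. Compound exposure was 30 min, and depolarization was read as fluorescence at 590 nm.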
A488 autofl – compound fluoresces in the A488 spectral region | max dye equivalency, M | actives 0.1% (n = 59,000) | AID 591 | compound autofluorescence, A488 spectral region, dye equivalency; stronger effect = higher value; active = above 10 nM dye equivalent; inconclusive = 1 to 10 nM; inactive = 1 nM or less; about half of its hits are not listed in these tables;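 note: highest value over a series up to 38 µM; compound alone in buffer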
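Spectroscopic profiling in the A488 region: compounds in pH 8.0 Tris (100 mM), 15 min RT, CCD imaging with 480 nm excitation and 540 nm emission; responses normalized against A488 dye standards.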
A647 fluor – compound autofluorescence in A647 spectral region | Compound fluorescence, A647 channel (570/671 nm), Tris buffer | 59,000 tested, under 10 active | max dye-equivalent concentration, M; active means above 1 µM dye equivalent; inconclusive means 0.1 to 1 µM; inactive means 0.1 µM or less;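 note: values scaled relative to a standard on each plate; highest value over a series up to 38 µM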
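Tris 100 mM pH 8.0; cpd + A647 stds pin-transferred; 15 min RT; CCD imager, ex 570/em 671. Output = A647-equivalent conc. per cpd conc.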
Resorufin autofl – compounds fluorescent in resorufin spectral region; Compound fluorescence, resorufin region 547/598 nm, buffer; stronger effect = higher value; max dye-equivalent concentration, M; actives 0.04% (n = 59,000); AID 588; active = above 10 nM dye equivalent; inconclusive = 1 to 10 nM; inactive = 1 nM or less; a few of its hits are not listed in these tables; note: highest value over a series up to 38 µM
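Dye-equivalent concentration values derive from comparing each well's 547/598 nm fluorescence against resorufin standards included on every plate. Incubation was 15 min at room temperature in 100 mM Tris, pH 8.0.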
* hit, by the source's call; i = inactive; ? = inconclusive; . = no result given; [ ] = remark or other dose. Only part of the results is shown; rates above refer to the full screens.

Molecule,AID923,TSHR ag,A488 autofl,A647 fluor,Resorufin autofl
Cc1ccc(-c2cc(C(F)F)n3ncc(C(=O)NCc4ccco4)c3n2)cc1,19%,9%,i,1e-09,i
Cc1cc(/C=N/n2cnnc2)c(C)n1-c1ccc2c(c1)OCO2,.,.,i,3.1e-09,i
COc1ccc(CCN2C(=O)CC(N3CCN(S(=O)(=O)c4ccccc4)CC3)C2=O)cc1 (centres undefined),-1.4%,?,i,2.1e-08,i
CC(C)CNC(=O)C1CC(=O)OC12CCCCC2 (centres undefined),0.4%,1%,i,3e-08,i
Cc1cc(C)nc(N2C(=O)CC(Cc3ccccc3)C2=O)n1 (centres undefined),-0.6%,-2%,i,1e-09,i
O=C(CCN1CCCCC1)Nc1cccc(Cl)c1,.,.,i,1e-09,i
CCCOc1ccc(/C(O)=C2/C(=O)C(=O)N(CCCOC)C2c2ccncc2)cc1 (centres undefined),4.4%,-1%,i,4.4e-09,i
CN(C)CCn1nnnc1SCC1=C(C(=O)O)N2C(=O)[C@@H](NC(=O)Cc3csc(N)n3)[C@@H]2SC1,9.3%[25.7 µM],2%[25.6 µM],i,1.1e-08,i
N#Cc1ccc(CN2CC3(CCN(C(=O)c4cc(C(F)(F)F)cc(C(F)(F)F)c4)CC3)C2)cc1,3.2%,15%,i,2e-09,i
COc1c(C(=O)Nc2c(C)n(C)n(-c3ccccc3)c2=O)ccc2ccccc12,0.6%,?,.,.,.
O=C(CSc1nnnn1C1CCCCC1)N1CCc2ccccc21,-1.7%,1%,i,8.7e-09,i
O=C1C(C=NCc2ccco2)=C(O)c2ccccc21,1.5%,-10%,.,.,.
CC1CC(C)CN(c2oc(-c3ccco3)nc2C#N)C1 (centres undefined),0.3%,?,i,2e-08,i
COC(=O)C1CCN(C(=O)NC(C)(C)C)CC1,0.0%,4%,i,1.5e-09,i
O=C(NCC1c2ccccc2CCN1C(=O)CN1CCOCC1)C1CCCCC1 (centres undefined),-1.1%,2%,i,2.8e-08,i

Filtered by structure, the entries above with a halogen.
Molecule,AID923,TSHR ag,A488 autofl,A647 fluor,Resorufin autofl
Cc1ccc(-c2cc(C(F)F)n3ncc(C(=O)NCc4ccco4)c3n2)cc1,19%,9%,i,1e-09,i
O=C(CCN1CCCCC1)Nc1cccc(Cl)c1,.,.,i,1e-09,i
N#Cc1ccc(CN2CC3(CCN(C(=O)c4cc(C(F)(F)F)cc(C(F)(F)F)c4)CC3)C2)cc1,3.2%,15%,i,2e-09,i

(listing goes on)
Molecule,AID923,TSHR ag,A488 autofl,A647 fluor,Resorufin autofl
N#CC(C(=O)NCCc1ccccc1)c1nc2ccccc2nc1N1CCCCC1 (centres undefined),16%,8%,?,3.9e-09,i
COc1ccc(O)c(CN2CCN(C/C=C/c3ccccc3)CC2)c1,-1.1%,?,.,.,.
O=C(Nc1nnc(-c2ccco2)s1)C1CCN(S(=O)(=O)c2ccc(Cl)cc2)CC1,-0.1%,-9%,i,1e-09,i
COc1ccccc1C1(O)CCN(CC(=O)Nc2c(C)nn(C)c2C)CC1,0.8%,0%,i,2.2e-08,i
CC1=C(C(=O)Nc2ccccc2C)C(c2ccc(C)o2)N2C(=O)CSC2=N1 (centres undefined),1.0%,6%,i,2.7e-08,i
Cn1cccc1C1NC(=O)c2c(sc3c2CCC(C(C)(C)C)C3)N1 (centres undefined),-0.6%,0%,i,3.5e-09,i
O=C(NCCN1CCOCC1)c1ccc2c(c1)N(Cc1ccccc1F)C(=O)CS2,-0.2%,8%,i,2.4e-08,i
Cc1cc(C)c2nc(SCC(=O)N3CCCCC3)c(C#N)cc2c1,1.3%,?,i,3.2e-08,i
CCOC(=O)c1ccc(NC(=O)CSc2nnc(COc3ccccc3OC)n2CC)cc1,-2.0%,5%,i,2.3e-09,i
Oc1c(C(Nc2nc3ccccc3s2)c2ccco2)ccc2cccnc12 (centres undefined),-0.9%,24%,i,3.7e-09,i
CC(=O)Nc1c(C(=O)O)[nH]c2ccccc12,-0.2%,5%,i,1e-09,i
COc1ccc(C(=O)Nc2nncs2)cc1S(=O)(=O)N1CC(c2ccccc2)CC1=O (centres undefined),-3.5%,5%,.,.,.
CC(=O)Oc1cccc(N2C(=O)C3C(C2=O)C2C=CC3C23CC3)c1 (centres undefined),-2.4%,-16%,.,.,.
COc1ccc2c(c1OC)C(=O)N(c1cccc(C)c1)C2=O,8.2%,3%,.,.,.
CCOc1ccc(N2C(=O)c3cccnc3C2Nc2ccc(Cl)cc2)cc1 (centres undefined),-2.7%,22%,i,1.8e-09,i
Cc1ccc2c(c1)C(O)(c1c(C)[nH]c3ccccc13)C(=O)N2 (centres undefined),2.3%,-10%,i,1e-09,i
CCC[C@@H]1C[C@@]1(CCC)[C@@H](NP(=O)(c1ccccc1)c1ccccc1)c1ccc(C(=O)OC)cc1,1.0%,?,.,.,.
O=C(CN1C(=O)CSC1=O)Nc1ccc(F)c(F)c1F,-0.1%,?,i,6e-09,i
O=C1CC(c2cccs2)c2cc3c(cc2N1)OCO3 (centres undefined),-0.1%,-1%,i,6.4e-09,i
O=c1[nH]c(Nc2nc3ccccc3o2)nc2c1CCCC2,0.0%,5%,.,.,.
Cc1ccc2nc(CC(=O)c3ccc4ccccc4c3)c(=O)[nH]c2c1,0.7%[11.5 µM],5%[11.4 µM],i,4.2e-08,i
CCS(=O)(=O)Nc1cccc(C(=O)CC2(O)C(=O)Nc3ccccc32)c1 (centres undefined),-0.6%,-4%,i,2e-08,i
CCOc1ccc2nc(N3CCCC(C(=O)N4CCN(CC)CC4)C3)sc2c1 (centres undefined),1.3%,-10%,.,.,.
COC(=O)c1ccccc1NC(=O)Cn1ccnc1,-0.4%,0%,i,1e-09,i
CCOC(=O)N1CCN(C(=O)c2ccc3nc4ccsc4c(=O)n3c2)CC1,0.5%,3%,.,.,.
COc1cc2ccccc2cc1C(=O)N1CCN(C)CC1,0.1%,6%,i,5.2e-09,i
CC(C)(C)c1ccc(OCC(=O)O)c(Cl)c1,-2.7%[11.5 µM],6%[11.4 µM],i,2e-08,i
C[C@@H]1CCC[C@H](C)N1,0.7%[25.7 µM],.,i,1.7e-09,i
Cc1ccc(NC(=O)CSc2nnc(-c3ccc(S(=O)(=O)N4CCCC4)cc3)o2)cc1C,-0.3%,11%,i,2.3e-08,i
CCOCCCNC(=O)c1cc(C)nn1-c1ccccc1,-1.6%,4%,.,.,.
O=C(Nc1ccc(Cl)cc1C(=O)O)c1ccc2c(c1)C(=O)N(Cc1ccco1)C2=O,1.0%,-14%,i,1e-09,i
O=C(c1cccs1)N1CCN(S(=O)(=O)N2CCCCC2)CC1,0.0%,-1%,i,1.1e-08,i
CCCN1C(=O)C2C(C(=O)Nc3cccc(OC)c3)C3C=CC2(O3)C1C(=O)NC1CCCCC1 (centres undefined),2.1%,4%,i,1e-09,i
O=C(O)c1ccc(NS(=O)(=O)c2ccsc2C(=O)O)c(O)c1,0.5%,-1%,.,.,.
COc1nc(NC(C)(C)C)nc(Oc2ccc(=O)n(C)n2)n1,4.2%,-10%,.,.,.
CC1(C)O[C@H]2C[C@@H]3[C@H]4CCC5=CC(=O)CC[C@@]5(C)[C@]4(F)[C@@H](O)C[C@@]3(C)[C@@]2(C(=O)CCl)O1,0.0%[25.7 µM],4%[25.6 µM],i,4e-09,i
O=S(=O)(NCCSc1ccc(Cl)cc1)c1ccc2c(c1)OCCO2,-1.8%,.,i,1e-09,i
CN(CCO)Cc1ncccc1O,-1.6%[11.5 µM],1%[11.4 µM],i,1e-09,i
COc1ccc(S(=O)(=O)N2CCN(C(=O)NC3CCCCC3)CC2)cc1OC,-0.1%,5%,i,1.9e-08,i
COCCOC(=O)C1=C(C)OC(N)=C(C#N)C1c1ccc2c(c1)OCO2 (centres undefined),13%,21%,.,.,.
COc1cc(S(=O)(=O)N2CCC(C(N)=O)CC2)c(C)cc1C,1.0%,4%,i,3.2e-09,i
COC(=O)c1ccc(Cn2cnc3c(cnn3-c3ccc(C)c(C)c3)c2=O)o1,0.7%,?,i,1e-09,i
CC1=C(Sc2nc3ccccc3[nH]2)C(=O)NC(C)(C)C1,-3.0%,1%,i,1e-09,i
COc1cc(Br)cc2cc(C(=O)N3CCCCC3C)c(=O)oc12 (centres undefined),0.2%,3%,i,4.1e-08,i
COC(=O)N1[C@H](C)C=C[C@]1(Cc1ccccc1)C(=O)NCCCNc1ncc(C(F)(F)F)cc1Cl,-1.0%,?,.,.,.

One compound at a time, from the list above.
Entry for O=C(c1cccs1)N1CCN(S(=O)(=O)N2CCCCC2)CC1 → AID923: 0.0%; TSHR ag: -1%; A488 autofl: i; A647 fluor: 1.1e-08; Resorufin autofl: i
Entry for CN(CCO)Cc1ncccc1O → AID923: -1.6%[11.5 µM]; TSHR ag: 1%[11.4 µM]; A488 autofl: i; A647 fluor: 1e-09; Resorufin autofl: i

The list goes on.
Molecule,AID923,TSHR ag,A488 autofl,A647 fluor,Resorufin autofl
Nc1cccc(-c2nc3ccccc3[nH]2)c1,4.8%,4%,.,.,.
CCOC(=O)C1=C(CN2CCC(C)CC2)NC(=O)NC1c1ccc(Cl)cc1 (centres undefined),-2.4%,27%,i,1.4e-08,i
O=C(Cn1nc(-c2cccc(Cl)c2)ccc1=O)Nc1cccnc1,2.5%,.,i,1e-09,i
COC(=O)c1ccc(-c2n[nH]c(=O)c3ccccc23)cc1,0.8%,-3%,i,2.7e-08,i
O=C(CN(c1ccc2c(c1)OCCO2)S(=O)(=O)c1ccccc1)NCC1CCCO1 (centres undefined),0.8%,12%,i,4.4e-08,i
CCN1CCN(C(c2ccccc2OC)c2nnnn2C2CCCCC2)CC1 (centres undefined),1.2%,5%,i,9.8e-09,i
O=C(CCn1c(=O)[nH]c2ccsc2c1=O)N1CCc2ccccc2C1,-0.9%,5%,i,1e-09,i
COc1ccc(N=C2C(=O)Nc3c(C)cccc32)cc1,-1.8%,-14%,i,1e-09,i
c1ccc(-n2cnnc2SCc2nc3ccccc3s2)cc1,1.7%,3%,i,1e-09,i
CC(C)(C)NC(=O)COC(=O)c1snc(C(=O)NC2CCCCC2)c1N,3.0%,?,i,5.4e-08,i
CC1Cc2nc(SCC(=O)Nc3ccc(F)cc3F)n(C)c(=O)c2S1 (centres undefined),0.0%,8%,i,1.7e-08,i
O=C(O)c1nn(-c2ccc(Cl)cc2)c2c1C(=O)c1ccccc1C2=O,-0.9%[11.5 µM],-17%[11.4 µM],i,2.3e-09,i
CN(C)c1ccc(NC(=O)c2ccc(COc3cccc(Cl)c3)o2)cc1,2.3%,-28%,i,1e-09,i
Cc1ccc2[nH]c3c(N4CCN(Cc5ccccc5)CC4)ncnc3c2c1,.,.,i,3.3e-08,i
O=S(=O)(c1ccc2c(c1)OCCO2)N1CCC(c2nc3ccccc3s2)CC1,-1.0%,.,i,3.9e-08,i
O=c1[nH]c2ccc(S(=O)(=O)N3CCCCC3)cc2[nH]1,0.7%,0%,i,3.5e-09,i
O=C(NC1CCCC1)C(c1ccc(N2CCOCC2)cc1)N(Cc1ccco1)C(=O)c1ccco1 (centres undefined),-0.4%,1%,i,6.5e-09,i
C(=C\c1ccccc1)/CN1CCN(c2ncnc3c2oc2ccccc23)CC1,1.3%,.,i,2.5e-08,i
c1ccc(CNc2ccnc(-c3ccoc3)n2)cc1,5.0%,?,i,1.7e-08,i
